# MgrA-DNA mod = S. aureus MgrA activity modulators, primary screen, biochemical, S. aureus Newman, fluorescence polarization; MgrA-DNA binding; inhibition, %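 (about 10 µg/mL by stock and volumes)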; 84,000 tested, 0.13% active; AID 602314, 2012;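 active means above 50% in either of two replicates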;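 further: 0% = protein plus DNA without compound and 100% = DNA alone without protein; higher means less MgrA bound to DNA so lower polarization; one replicate is shown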
# Sa helicase inh = inhibitors of S. aureus replicative helicase, primary screen, biochemical, fluorescence unwinding readout; replicative DNA helicase (DnaC/DnaB), Staphylococcus aureus; inhibition, %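 (tested at about 80 µM)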; AID 485395, 2010; 120,000 tested, 0.05% active; purified S. aureus helicase, fluorescence unwinding assay; about half of the hits fall short of the stated cut;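 active means both duplicates at 50% or more, or one of them with a favoured structure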;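 further: 0% = mean of negative control wells and 100% = mean of positive control wells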
# * = called active by the depositor; . = no result given. An excerpt, so the mix of outcomes need not match the whole.
Sa helicase inh	MgrA-DNA mod	smiles
.	0.9	CC(=O)c1cccc(NC(=O)c2cc(-c3ccccc3)nc3ccccc23)c1
3	0.2	CCOC(=O)c1sc2nc(Cc3ccccc3)nc(NCCC3=CCCCC3)c2c1C
11	3.4	CCn1cnc2c(oc3ccccc32)c1=O
-11	-0.3	O=C(N1CCC(n2cnc3cccnc32)CC1)N1c2ccccc2Sc2ccccc21
-17	.	CCOC(=O)c1ccccc1NC(=S)N1CCC(N2CCCCC2)CC1
4	2.0	O=C(NCC(O)c1ccccc1)c1ccc(Cl)cc1 (stereo unspecified)
2	1.9	O=C1Cc2ccccc2CC(=O)N1
-12	.	N#CC(C#N)=CNCc1cccs1
4	.	N#Cc1ccc(NC(=O)c2oc3ccccc3c2CSCc2ccccc2)cc1
.	-1.6	Cc1ccc2c(O)c(-c3ccccc3)c(=O)[nH]c2c1
-2	-1.4	CC(C)(C)C(=O)CSc1nc2ccccc2c(=O)n1-c1ccccc1
.	1.0	O=C1CSC(c2cccc([N+](=O)[O-])c2)N1c1ccc(Oc2ccccc2)cc1 (stereo unspecified)
3	.	COc1ccc(-n2c(SCC(N)=O)nc3ccccc3c2=O)cc1
-1	1.5	Cn1c(=O)c(C#N)c(-c2ccccc2)n2cnnc12
-16	.	CCCN1CCN(CCCNC(=O)c2cnc(SC)nc2-c2ccccc2)CC1
-8	.	COc1cc2c(cc1NC(=O)C(C)NCc1ccc3c(c1)OCO3)oc1ccccc12 (stereo unspecified)
4	.	Cc1cccnc1-n1c(CCN2C(=O)c3ccccc3C2=O)nc2ccccc2c1=O
-4	.	CC(C)CN(C(=O)C1CC1)C1CCS(=O)(=O)C1 (stereo unspecified)
11	4.3	O=C(Cn1ncc2ccccc21)NCc1ccc(Cl)cc1
0	0.3	O=C(Cn1ccn(-c2ccccc2)c(=O)c1=O)c1ccc(F)cc1

# (more compounds)
Sa helicase inh	MgrA-DNA mod	smiles
-30	.	CC(C)Cc1ccc2c(N)c(C(=O)O)sc2n1
.	-0.3	COc1cccc(C(=O)Nc2nnc(CCS(=O)(=O)c3cc(Cl)ccc3Cl)s2)c1
12	.	CCOC(=O)CC1c2cc(OCC)c(OCC)cc2CCN1S(C)(=O)=O (stereo unspecified)
7	0.0	c1ccc(-c2nnc(CN3CCc4ccccc4C3)o2)cc1
.	-0.4	O=C1CCCN1c1ccccc1
-6	.	O=C(OCc1nc(-c2ccccc2Cl)no1)c1ccc2c(=O)n3c(nc2c1)CCCCCC3
21	1.1	O=C(Nc1cc(N2CCCCC2)ncn1)c1ccc(F)cc1
.	-2.8	Cc1ccc(CNc2ccccn2)cc1
-16	.	CSC1=NC2(CCN(C(=O)OC(C)(C)C)CC2)Nc2ccccc21
1	-0.8	O=c1cc(Nc2ccccc2)cc[nH]1
9	.	O=C(O)c1ccc(CN2CCc3ccccc3C2)cc1
.	-1.2	O=C1N=c2ccc(Br)cc2=C1c1sc(=S)n(-c2ccc(O)cc2)c1O
1	1.6	Cc1ccc(C)c(N2C(=O)CS/C2=N\NC(=O)c2ccc(S(=O)(=O)N3CCCC3)cc2)c1
-27	.	CC/C(C)=N/n1c(-c2ccc3c(c2)NC(=O)CO3)csc1=Nc1ccc(C)cc1
-12	.	Cc1ccc(NNC(=O)C(C)(C)O)c(C)c1
8	0.5	CC1(C)CC(=O)C=C(NCCCNC2CCCCC2)C1
.	5.1	Cc1ccc(-n2c(CCc3ccc(O)cc3)n[nH]c2=S)c(C)c1
.	3.0	CN(O)/C=C/C(=O)c1ccc(Br)cc1
-37	.	Cc1ccc2cc(/C=C(\C#N)C(N)=O)c(N(C)C)nc2c1
-10	.	O=C(NCCC(=O)N1CCOCC1)c1ccc(Cl)cc1

# Sorted by the number under MgrA-DNA mod (smallest number first): some entries from above.
Compound | MgrA-DNA mod
O=C1CSC(c2cccc([N+](=O)[O-])c2)N1c1ccc(Oc2ccccc2)cc1 (stereo unspecified) | 1.0
O=C(Nc1cc(N2CCCCC2)ncn1)c1ccc(F)cc1 | 1.1
O=C(NCC(O)c1ccccc1)c1ccc(Cl)cc1 (stereo unspecified) | 2.0

# Carrying on:
Sa helicase inh	MgrA-DNA mod	smiles
.	-0.7	Cc1nc(C)c(C#N)c(-c2ccc(Cl)cc2)c1C#N
-12	.	CCN(CC)S(=O)(=O)c1ccc2oc(SCc3cn4c(C)cccc4n3)nc2c1
-8	0.2	COc1ccc(N2CCN(CCCNC(=O)Nc3ccccc3)CC2)cc1
.	-1.6	N#Cc1ccc(OCC(F)(F)F)nc1
17	-2.5	O=C(CNC(=O)C1CCCCC1)Nc1ccc(Cl)cc1
-5	0.2	CCc1nn(C(C)C(=O)NCCN2CCN(c3cccc(C)c3C)CC2)c(=O)c2cc3occc3n12 (stereo unspecified)
21	.	COc1ccc(-n2ccn3c(CCC(=O)O)nnc3c2=O)cc1
.	-1.2	CC1(NO)CCCC/C1=N/O (stereo unspecified)
0	1.6	CSCCC1NC(=S)N(Cc2ccccc2)C1=O (stereo unspecified)
-22	.	OC(c1nc2ccc(F)cc2[nH]1)C(O)c1nc2ccc(F)cc2[nH]1 (stereo unspecified)
2	-2.9	O=C(Nc1ccncc1)C1COc2ccccc2O1 (stereo unspecified)
-5	-1.0	CN1CCC(N(C)C(=O)c2cc3ccccc3o2)CC1
10	-1.8	Cc1ccc(N2C(N)=C(C#N)C(c3ccccc3)C3=C2CC(C)(C)CC3=O)cc1 (stereo unspecified)
0	-2.7	CN1C(=O)C[C@H](C(=O)O)[C@H]1c1cccnc1
8	.	O=C(Cn1ncn2c(cc3ccccc32)c1=O)NC1CC1
-10	.	CC12CCOC1N(Cc1ccccc1)c1ccccc12 (stereo unspecified)
-3	1.5	COc1ccc(-c2cc(C(F)(F)F)nc(S(=O)(=O)CCC(=O)NCc3cccnc3)n2)cc1
14	-1.1	CN1CCC(NC(=O)c2cccc(C(F)(F)F)c2)CC1
-12	-1.8	CSc1ccccc1NC(=O)COC(=O)c1cccc2ccccc12
.	2.1	O=C(O)CC(CC(=O)NCc1ccco1)c1ccc(C(F)(F)F)cc1 (stereo unspecified)

# Given in CSV form: part of the list above
SMILES,Sa helicase inh,MgrA-DNA mod
OC(c1nc2ccc(F)cc2[nH]1)C(O)c1nc2ccc(F)cc2[nH]1 (stereo unspecified),-22,.
O=C(Nc1ccncc1)C1COc2ccccc2O1 (stereo unspecified),2,-2.9
CN1CCC(N(C)C(=O)c2cc3ccccc3o2)CC1,-5,-1.0
Cc1ccc(N2C(N)=C(C#N)C(c3ccccc3)C3=C2CC(C)(C)CC3=O)cc1 (stereo unspecified),10,-1.8

# The results go on.
Sa helicase inh	MgrA-DNA mod	smiles
5	.	CN(C(=O)CSc1ncn[nH]1)c1ccccc1
2	-2.5	COc1ccc(/C=C/C(=O)Nc2ccc(C)c(C)c2)cc1OC
.	-3.4	CC(C)(C)c1csc(Cc2ccccc2Cl)n1
-13	.	CN(C)S(=O)(=O)c1cccc(COC(=O)Cn2cnc3ccccc3c2=O)c1
16	0.2	Cc1ccc(-c2cc(-c3ccccc3)c(C#N)c(S(=O)Cc3ccccc3)n2)cc1 (stereo unspecified)
3	.	C=CCn1nnnc1SCC(=O)c1ccccc1
6	-5.3	O=C(O)CCCC(=O)Nc1cccc(NC(=O)c2ccco2)c1
.	-2.3	Clc1ccc(-n2nnnc2-c2ccno2)cc1
7	-2.1	Cc1cc(C)c(Cn2c(SCc3cccc(F)c3)nc3ccncc32)c(C)c1
.	0.4	COc1ccc(-c2cc(C(F)(F)F)n3nc(C(=O)Nc4ccc(C(C)=O)cc4)cc3n2)cc1OC
.	29	C=CC(=O)n1nccc1-c1sc(COc2cccc(Cl)c2)nc1C
11	-0.3	CN(C(=O)CSc1ncnc2ccccc12)c1ccccc1
7	.	O=C(Nc1nccs1)C1CCC(CNS(=O)(=O)c2cccc3nsnc23)CC1 (stereo unspecified)
14	-1.2	COc1ccc(OCC(=O)N2CCOCC2)cc1
-1	.	CCN(CCO)C(=O)Cc1cc(=O)[nH]c(=O)[nH]1
10	1.7	O=C(NC1CSCC1=O)c1ccccc1 (stereo unspecified)
.	-1.4	CCCC1=NNC(=O)C1Cc1c(Cl)cccc1Cl (stereo unspecified)
.	0.8	CC1(C)C2CCC1(CS(=O)(=O)N1CCCN(c3nc4ccc(Cl)cc4s3)CC1)C(=O)C2 (stereo unspecified)
9	.	O=C(c1cc(=O)[nH]c2ccccc12)N1CCSC1=NCCc1ccccc1
4	.	CCOC(=O)N1CCN(C(=O)CSc2nc3c([nH]c4ccccc43)c(=O)n2-c2ccc(OCC)cc2)CC1

# (listing goes on)
Sa helicase inh	MgrA-DNA mod	smiles
.	-0.8	Cc1c(CN2CCc3ccccc3C2)sc2ccccc12
10	.	Cc1c(NC(=O)C(C)OC(=O)c2ccc3c(c2)OCO3)c(=O)n(-c2ccccc2)n1C (stereo unspecified)
.	2.3	CC(=O)N[C@@H](Cc1c[nH]c2ccccc12)C(=O)O
-15	.	CC(=O)NCCC(=O)Nc1nnc(SCc2ccc(C#N)cc2)s1
-10	.	CCOC(=O)c1cc(C(=O)NN)c(C)nc1C
4	.	O=C(COc1ccccc1)N(Cc1ccco1)c1ccc(O)cc1
23	2.5	N#Cc1ccccc1NC(=O)COC(=O)Cc1cccc2ccccc12
.	-1.8	O=S(=O)(Cc1noc(-c2ccc(Cl)cc2)n1)c1ccccn1
6	-4.8	O=C(O)c1n[nH]c2c1CCC2
-16	.	CCc1nn2c(=O)cc(CSc3nc(C)cc(=O)[nH]3)nc2s1
2	-4.5	CC(C)c1cc(C(=O)O)n(-c2ccccc2)n1
6	-1.0	CC(N)c1ccc2c(c1)CCC2 (stereo unspecified)
-23	1.1	CCCn1c(SCC(N)=O)nnc1C1CC1
8	-5.5	O=C(O)CC(CC(=O)Nc1nncs1)c1ccccc1 (stereo unspecified)
-18	.	O=C(O)/C=C\C(=O)NCc1cccs1
13	-1.4	Cc1ccc2oc(=O)c3cc(C(=O)N4CCCCC4)sc3c2c1
7	-0.9	O=c1c[n+]([O-])c2ccccc2n1OCc1c(F)cccc1F
6	.	O=C(NCc1nnc(SCC(=O)N2CCc3ccccc32)o1)c1ccccc1
14	6.7	Nc1nc2c3cccc4cccc(c(=O)n2n1)c43
13	.	O=c1cc(CN2CCCCC2)c2cc(O)ccc2o1

# Next part:
Sa helicase inh	MgrA-DNA mod	smiles
14	-0.4	Cc1cc(C(=O)NCCCn2ccnc2)cs1
-12	-0.8	COC(=O)C1=C(N)OC2=C(CCCC2=O)C1c1cccnc1 (stereo unspecified)
13	2.0	COC(=O)Cn1c(C(=O)OC)ccc1-c1ccco1
.	-1.5	C=CCSc1nnc(COc2ccccc2)o1
1	0.5	O=C(Nc1ccccc1C(F)(F)F)N1CCCCCC1
0	.	O=P(c1ccccc1)(c1ccccc1)C(O)c1ccncc1 (stereo unspecified)
-19	.	Cc1onc(-c2ccccc2)c1C(=O)NCCN1CCNC1=O
23	-0.3	CCOC(=O)c1cccc(NC(=O)C2CCCCC2)c1
11	3.3	COc1ccc(-n2nnc(C(N)=O)c2N)cc1
13	.	Cc1oc(-c2ccccc2)nc1C(=O)N(C)Cc1cccc(Cl)c1Cl
.	3.9	Cc1ncc(CSc2nc(C(C)(C)C)cs2)c(CO)c1O
-4	.	Cc1oc2ncnc(N3CCC(C(N)=O)CC3)c2c1C(=O)O
-8	.	COc1ccc(CN2CCN(Cc3c[nH]c4ccccc34)CC2)c(OC)c1OC
3	.	O=C(CSc1ncnc2c1nnn2Cc1ccccc1)OCc1ccccc1
.	-0.5	Cn1ncc2c(Sc3ccc(Cl)cc3)ncnc21
12	4.6	CCOc1ccc2c(c1)=C(c1sc(N)nc1O)C(=O)N=2
10	4.2	O=C(CN1C(=O)COc2ccccc21)NCc1ccco1
17	.	Cc1ccsc1C=Nc1ccc(Cl)cn1
.	1.9	CS(=O)(=O)N1CCN(c2cc(C(F)(F)F)nc3ccccc23)CC1
.	-4.4	COc1cc(C=O)ccc1Oc1nc(N2CCCCC2)nc(N2CCCCC2)n1

# The listing continues.
Sa helicase inh	MgrA-DNA mod	smiles
3	.	CN(CC(=O)NC1(C#N)CCCC1)Cc1cccc(F)c1
16	.	COc1ccc(C2=NOC(C(=O)N3C(C)CCCC3C)C2)cc1 (stereo unspecified)
-4	.	O=C(CCCc1nc2ccccc2c(=O)[nH]1)Nc1ccnn1C1CCCC1
.	-0.4	CC1=NNC(=O)C1Cc1ccccc1 (stereo unspecified)
.	2.8	FC(F)(F)c1ccc(OCc2ccccc2)cc1
2	-0.1	CC(NC(=O)Nc1ccccc1)c1ccccc1 (stereo unspecified)
16	.	FC(F)(F)c1cc(-c2cccs2)nc2c1cnn2C1CCCCC1
-5	.	Cc1cc(C(=O)CN2C(=O)C3CC=CCC3C2=O)c(C)n1-c1ccccc1 (stereo unspecified)
13	-1.6	COc1ccc(C=Nc2ccc(Br)cc2)cc1OC
-20	.	CCCCCOCC1Cc2c(C)nn(C(N)=S)c2O1 (stereo unspecified)
.	-2.0	CC(C)(C)S(=O)(=O)Cc1nc(-c2ccc3c(c2)OCCCO3)cs1
3	1.1	O=C1CSc2cc(S(=O)(=O)N3CCC(Cc4ccccc4)CC3)ccc2N1
-6	.	CCCn1nc(C(=O)N2CCc3ccccc32)c2ccccc2c1=O
7	.	CC1CC(C)CN(C(=O)c2ccc(C#N)cc2)C1 (stereo unspecified)
0	.	Nc1cc(Cl)ccn1

# Taken from above.
# COc1ccc(C2=NOC(C(=O)N3C(C)CCCC3C)C2)cc1 (stereo unspecified) in Sa helicase inh is listed with 16
# O=C(CCCc1nc2ccccc2c(=O)[nH]1)Nc1ccnn1C1CCCC1 in Sa helicase inh is listed with -4
# O=C1CSc2cc(S(=O)(=O)N3CCC(Cc4ccccc4)CC3)ccc2N1 in Sa helicase inh is listed with 3
# Nc1cc(Cl)ccn1 in Sa helicase inh is listed with 0
# CC1=NNC(=O)C1Cc1ccccc1 (stereo unspecified) in MgrA-DNA mod is listed with -0.4
# CC(C)(C)S(=O)(=O)Cc1nc(-c2ccc3c(c2)OCCCO3)cs1 in MgrA-DNA mod is listed with -2.0
# FC(F)(F)c1ccc(OCc2ccccc2)cc1 in MgrA-DNA mod is listed with 2.8
